GIV Gai3 FP: inhibitors of GIV peptide binding to Galpha-i3, primary screen, biochemical, fluorescence polarization, FITC-GIV GBA peptide, rat Galphai3 | Guanine nucleotide-binding protein G(i) subunit alpha-3 (Rattus norvegicus), P08753 | hit rate 0.42% among 210,000 | 90 min; active compounds read low; scaled: aluminum fluoride 0%, vehicle 100% | AID 1224905, 2016 | percent of control (FP), % (test concentration not listed);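 active = replicate mean at 85% of control or lower, very high polarization wells dropped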;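 note: lower values mean more displacement of the GIV peptide from Galpha-i3; wells of about 15 µL received 100 nL stock; the first replicate is given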
Target sequence (P08753 whole entry, looked up): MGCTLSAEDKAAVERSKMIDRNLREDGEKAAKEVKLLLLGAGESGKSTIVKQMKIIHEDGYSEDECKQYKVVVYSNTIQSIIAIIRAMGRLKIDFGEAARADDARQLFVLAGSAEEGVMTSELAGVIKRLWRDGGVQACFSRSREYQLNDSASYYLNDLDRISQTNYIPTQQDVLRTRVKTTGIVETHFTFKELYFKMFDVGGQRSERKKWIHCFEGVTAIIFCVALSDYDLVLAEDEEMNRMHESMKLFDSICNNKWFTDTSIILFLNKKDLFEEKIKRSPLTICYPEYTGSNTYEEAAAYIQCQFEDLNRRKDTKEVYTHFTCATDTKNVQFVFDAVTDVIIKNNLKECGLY
The depositor's hits bear a star. An excerpt; the hit share may differ from the screen's.

SMILES	GIV Gai3 FP
CC1(C)c2ssc(=S)c2-c2ccccc2N1C(=O)CN1C(=O)c2cccc([N+](=O)[O-])c2C1=O	110
CCCCN(CCCC)CC(O)CN(c1ccc(OC)cc1)S(=O)(=O)c1ccccc1 (configuration not stated)	105
COc1ccc(C)cc1NC(=O)Nc1c(-c2ccncc2)[nH]c2ccccc12	105
CCn1cnc2sc(C(=O)Nc3nc4ccc(Br)cc4s3)c(C)c2c1=O	98
CCOC(=O)c1[nH]c(C)c(CN(Cc2ccc(OC)cc2)C(=O)Nc2cc(C)ccc2OC)c1C	101
CCOc1ccc(C2=NN3C(C2)c2cc(Cl)ccc2OC3c2ccc(OCC)cc2)cc1 (configuration not stated)	116
COCCNC(=O)N1CCC2(C1)C(=O)N(C)c1ccccc12 (configuration not stated)	103
O=c1nc2c(S(=O)(=O)O)ccc3c2=c(/c1=C(\O)c1ccccc1)c1ccccc1c3=O	95
O=C1CCCC2=C1C(c1cc([N+](=O)[O-])ccc1O)C1=C(N2)c2ccccc2C1=O (configuration not stated)	116
Cc1nnc(-c2coc(S(=O)(=O)N3CCC(N4CCCCC4)CC3)c2)o1	100
Cc1ccc(NC(=O)c2cc(S(=O)(=O)N(Cc3ccco3)CC3CCCO3)ccc2F)cc1Cl (configuration not stated)	108
Cn1c(N2CCCC(C(=O)NCCC3=CCCCC3)C2)cc(=O)n(C)c1=O (configuration not stated)	104
CCNc1cc(C)nc(Nc2ccc(NS(=O)(=O)c3ccc(C)c(C)c3)cc2)n1	103
CCN1CCN(C(=O)c2sc3ncn(C)c(=O)c3c2C)CC1	100
COc1ccc(C(=O)N2CCC(C(=O)NCCc3csc(-c4ccccc4)n3)CC2)cc1	100
O=C(c1cccc([N+](=O)[O-])c1)N1N=C(C(F)(F)F)CC1(O)c1ccncc1 (configuration not stated)	117
O=C(CCN1CCN2CCCCC2C1)N1c2ccccc2Sc2ccc(Cl)cc21 (configuration not stated)	108
CCC1CCC2(CC1)NC(=S)N(c1ccc(C)cc1)N2 (configuration not stated)	109
CCOC(=O)c1sc2nc(SCC(=O)Nc3cccc(C(F)(F)F)c3)n(Cc3ccco3)c(=O)c2c1C	104
CCOC(=O)C1=C(C)OC(N)=C(C#N)C1c1ccc(C(=O)OC)cc1 (configuration not stated)	107
COc1cccc(Nc2nc(-c3ccc([N+](=O)[O-])cc3)nc3ccccc23)c1	108
COC(=O)c1ccc(N2CCN(C)CC2)c(NC(=O)Cc2ccc(F)cc2)c1	104
COc1ccc(C2(O)CN(c3ccc(Br)cc3)C3=[N+]2CCCS3)cc1 (configuration not stated)	100
COc1cccc(NC(=O)N(Cc2nnc3n2CCCCC3)c2ccccc2)c1	106
CCCOC(=O)c1sc2nc3c(c(-c4cccs4)c2c1N)CCCC3	117
Cc1cc(-c2ccc(=O)[nH]n2)cc(S(=O)(=O)N2CCN(c3ccccc3F)CC2)c1C	97
CN1CCN(C(=O)c2ccc(-c3cc(N4CCCCC4)ncn3)cc2)C(c2ccccc2)C1 (configuration not stated)	104
Cc1c(C(=O)N2CCC3(CC2)OCCO3)sc2ncnc(N3CCN(c4ccccc4F)CC3)c12	105
N#Cc1cc(C#N)c(SCC(=O)N(c2ccccc2)c2ccccc2)nc1N	101
CCOc1cccc2c1N(C(=O)Cc1ccc(F)cc1)C(C)(C)C1=C2C2(SC(C(=O)OC)=C(C(=O)OC)S2)C(C(=O)OC)=C(C(=O)OC)S1	105
CC(=O)N1CCCCC1CCN1CCCCC1 (configuration not stated)	104
COc1ccc2c(c1)C(C)(C)C1(C=Nc3c(c(C(=O)N4CCCCC4)cc4ccccc34)O1)N2C (configuration not stated)	105
CN(C)c1ccc(C2C3=C(CC(C)(C)CC3=O)NC3=C2C(=O)CC(C)(C)C3)cc1	114
Cc1cc(N2CCCCC2)nc(N2CCN(C(=O)c3ccc(C(C)(C)C)cc3)CC2)n1	103
N#Cc1c(/N=C/c2ccc(I)cc2)oc(-c2ccccc2)c1-c1ccccc1	110
O=C(CSc1c[nH]c2ccccc12)N1N=C(c2cccs2)CC1c1ccc(F)cc1 (configuration not stated)	114

Some of the entries so far, in markdown.
| Compound | GIV Gai3 FP |
| --- | --- |
| N#Cc1c(/N=C/c2ccc(I)cc2)oc(-c2ccccc2)c1-c1ccccc1 | 110 |
| O=C(CSc1c[nH]c2ccccc12)N1N=C(c2cccs2)CC1c1ccc(F)cc1 (configuration not stated) | 114 |

Other compounds:
SMILES	GIV Gai3 FP
CCOC(=O)C1=NNC2C(=O)N(c3ccccc3F)C(=O)C12 (configuration not stated)	106
O=C(Nc1ccsc1-c1nnc(C2CC2)o1)c1cccs1	96
CCc1nccn1Cc1nc(C2CCCCC2)no1	94
CCOC(=O)C1=C(C)OC(N)=C(C#N)C1c1c(C)c([N+](=O)[O-])c(C)c([N+](=O)[O-])c1C (configuration not stated)	108
Cc1ccc(NC(=O)Nc2ccc(SCc3nnc(-c4ccccc4)o3)cc2)cc1	103
O=C(c1ccc(Cn2c(=S)[nH]c3ccc(Br)cc3c2=O)cc1)N1CCC(N2CCCCC2)CC1	111
COC(=O)Nc1ccc(S(=O)(=O)N2CCCC(C(=O)N3CCC(C)CC3)C2)cc1 (configuration not stated)	114
CCOc1ccc(C2c3[nH]c4ccccc4c3CCN2C(=O)c2ccc(Cl)c(Cl)c2)cc1 (configuration not stated)	116
CCc1ccc(NC(=O)c2cccc(-c3cc(Oc4ccccc4OC)ncn3)c2)cc1	110
COc1cccc(C(=O)NCc2nnc(C(=O)Nc3ccc(F)cc3)s2)c1	110
Cc1noc(-c2ccc(S(=O)(=O)N3CCOCC3)s2)c1C	100
CC(C)Cn1c(=O)c(-c2ccc(C(=O)NCCCN(C)C)cc2)nc2ccccc21	100
Cn1cc(S(=O)(=O)N2CCC(C(=O)NCc3cccnc3)CC2)cc1C(=O)N1CCCC1	104
O=C(c1ccccc1)N1C(O)CCC12CSCC2=O (configuration not stated)	107
CCc1onc(C)c1C1CCCN1C(=O)c1c(Br)cnn1C (configuration not stated)	99
CC(C)(C)c1cc(CN(CCO)Cc2cc(C(C)(C)C)c(O)c(C(C)(C)C)c2)cc(C(C)(C)C)c1O	112
CS(=O)(=O)Nc1ccc(C2(C(=O)NCCC3=CCCCC3)CCCCC2)cc1	101
Cc1cccc(NC(=O)c2sc3ncn(CC(=O)N4CCN(c5ccccn5)CC4)c(=O)c3c2C)c1	107
CCCCCCCCCCCCCCCCCNN=C1CSc2sc(=S)sc2SC1	111
Cc1ccc(S(=O)(=O)c2nc(Cc3ccccc3)oc2NCc2ccccc2)cc1	133
Cc1cccc(Cn2cc(C(=O)Nc3cccc(Br)c3)ccc2=O)c1	105
O=C1C(c2ccccc2)=C(c2cccc3ccccc23)c2ccccc21	100
COc1cccc(OC)c1C(=O)Nc1ccc(-c2nc3ccccc3s2)c(O)c1	102
CC1CC(C)CN(C(=O)c2c[nH]c3ccc(S(=O)(=O)N4CCCCC4c4cccnc4)cc3c2=O)C1 (configuration not stated)	110
Cc1ccc2sc(NC(=O)c3ccc(S(=O)(=O)N(C)CC4CCCO4)cc3)nc2c1C (configuration not stated)	97
Cc1ccc(C2C3=C(Nc4ncnn42)c2cc(Cl)ccc2OC3c2cccs2)cc1 (configuration not stated)	100
CCc1ccc(C2=CC(c3sccc3C)n3ncnc3N2)cc1 (configuration not stated)	104
COC(=O)c1c(C(C)(C)C)oc2c1cc(NS(=O)(=O)c1ccc(F)cc1)c1ccccc12	109
CCOC(=O)c1ccccc1NC(=O)Cn1cc2c(=O)n(Cc3ccc(F)cc3)cnc2n1	94
Cc1cc(NC(=O)CCc2nc(CSc3nnc(-c4ccccc4)o3)no2)ccc1Br	107
C#CCOc1ccc2c(c1)c(C(=O)OCC)c(C)n2-c1ccc(N(CC)CC)cc1	102
CCOC(=O)CSc1nc(NCc2ccccc2)c2ccccc2n1	116
CC(=O)OCC1O[C@@H](n2c(F)c(C)c(=O)[nH]c2=O)C(OC(C)=O)[C@H](OC(C)=O)[C@@H]1OC(C)=O (some centres not stated)	100
Cc1[nH]c(C)c(S(=O)(=O)NC2CCCCCC2)c1-c1nnc(C2CC2)o1	102
CCS(=O)(=O)c1nc2ccc(NS(=O)(=O)c3ccc(F)cc3F)cc2s1	104
COc1ccc(/C=C(\NC(=O)c2ccc(Br)cc2)C(=O)NCc2ccco2)cc1	115

Arranged by the number under GIV Gai3 FP (lowest first): six of the compounds above.
smiles	GIV Gai3 FP
Cc1ccc2sc(NC(=O)c3ccc(S(=O)(=O)N(C)CC4CCCO4)cc3)nc2c1C (configuration not stated)	97
Cc1ccc(C2C3=C(Nc4ncnn42)c2cc(Cl)ccc2OC3c2cccs2)cc1 (configuration not stated)	100
Cc1[nH]c(C)c(S(=O)(=O)NC2CCCCCC2)c1-c1nnc(C2CC2)o1	102
COC(=O)c1c(C(C)(C)C)oc2c1cc(NS(=O)(=O)c1ccc(F)cc1)c1ccccc12	109
COc1ccc(/C=C(\NC(=O)c2ccc(Br)cc2)C(=O)NCc2ccco2)cc1	115
CCOC(=O)CSc1nc(NCc2ccccc2)c2ccccc2n1	116

(cont.)
SMILES	GIV Gai3 FP
CCC1CCCCN1Cc1nc(Cn2ccn3nc(-c4cccs4)cc3c2=O)no1 (configuration not stated)	101
Cc1ccc(-c2nn3c(=O)cc(CN4CCN(C(=O)c5ccccc5Br)CC4)nc3s2)cc1	101
CCOC(=O)Cn1nc2c(-c3nc(-c4ccc(Cl)cc4)no3)cccn2c1=O	106
O=C(NCc1ccc(Br)cc1)c1cccc(Oc2cc(-c3ccccc3)ncn2)c1	101
CCOc1ccc(S(=O)(=O)N2CCN(c3cccc(Cl)c3)CC2)c2cccnc12	121
CN(C)S(=O)(=O)c1ccc(-c2nnc(C(=O)NCC3CC3)o2)cc1	102
O=C(Nc1ccc(Br)cc1)N1CCN(C(=O)c2nsc3ccccc23)CC1	109
O=C1C=C(c2ccccc2)C[C@H](c2cccc([N+](=O)[O-])c2)[C@H]1n1cnc([N+](=O)[O-])n1	110
Cc1c(C(=O)NCC2CCCO2)sc2ncnc(N3CCN(c4ccccc4F)CC3)c12 (configuration not stated)	101
Cc1cc(C2CCCN2C(=O)c2cccc(F)c2)on1 (configuration not stated)	99
CC(C)(C)NCC(O)Cn1c2ccc(Cl)cc2c2cc(Cl)ccc21 (configuration not stated)	110
CCOc1nc(C)cc(COC)c1C#N	100
COc1ccc(OC)c(Nc2nc(-c3cc4cc(Br)ccc4oc3=O)cs2)c1	104
CCOC(=O)N1CCN(c2ncnc3c2cnn3-c2ccc(C)cc2C)CC1	107
O=C(COc1ccccc1/C=C1/NC(=O)NC1=O)Nc1ccc(F)cc1	101
COc1cccc(C(=O)NC(c2ccccc2OC)c2cc(Cl)c3cccnc3c2O)c1 (configuration not stated)	108
CN1CCN(C(=O)c2ccc(-c3cc(N4CCCC4)ncn3)cc2)C(c2ccccc2)C1 (configuration not stated)	155
CN(C)c1cc(OC2CCN(C(=O)c3ccnn3C)C2)ncn1 (configuration not stated)	99
O=C(CC(SCc1ccco1)c1ccc([N+](=O)[O-])cc1)c1cccs1 (configuration not stated)	106
Cc1noc(COC2CCCN(S(=O)(=O)c3cn(C)cn3)C2)n1 (configuration not stated)	104
Cc1ccc(CNC(=O)C2CCN(c3ncccc3S(=O)(=O)N3CCCCC3)CC2)cc1	105
CCOc1ccccc1N/C(SCc1ccc(Cl)cc1)=C(/C#N)C(=O)NCCc1ccc(OC)c(OC)c1	102
Cn1nc(C(=O)N2CCCC(C(=O)Nc3ccccc3)C2)c2c1CCN(C(=O)C(C)(C)C)C2 (configuration not stated)	107
CCn1nccc1C(=O)N1CCCCC1CCN1CCOCC1 (configuration not stated)	100

Single entries from the list.
For GIV Gai3 FP, `CCn1nccc1C(=O)N1CCCCC1CCN1CCOCC1` (configuration not stated) shows 100
For GIV Gai3 FP, `COc1ccc(OC)c(Nc2nc(-c3cc4cc(Br)ccc4oc3=O)cs2)c1` shows 104

Fetched one by one from above (6):
SMILES	GIV Gai3 FP
Cc1noc(COC2CCCN(S(=O)(=O)c3cn(C)cn3)C2)n1 (configuration not stated)	104
Cn1nc(C(=O)N2CCCC(C(=O)Nc3ccccc3)C2)c2c1CCN(C(=O)C(C)(C)C)C2 (configuration not stated)	107
CCOC(=O)N1CCN(c2ncnc3c2cnn3-c2ccc(C)cc2C)CC1	107
CCn1nccc1C(=O)N1CCCCC1CCN1CCOCC1 (configuration not stated)	100
COc1cccc(C(=O)NC(c2ccccc2OC)c2cc(Cl)c3cccnc3c2O)c1 (configuration not stated)	108
CCOc1ccccc1N/C(SCc1ccc(Cl)cc1)=C(/C#N)C(=O)NCCc1ccc(OC)c(OC)c1	102

Next part
SMILES	GIV Gai3 FP
Cc1cc(F)ccc1NS(=O)(=O)c1cc(-c2nc(C(C)(C)C)cs2)cs1	104
O=C1NC(=O)/C(=C\c2ccc(Sc3ccccc3)o2)N1	108
O=C1CC(c2noc(C3CC3)n2)CN1c1ccccc1 (configuration not stated)	103
COc1cccc(N/C(SCc2ccccc2C)=C(/C#N)C(=O)NCc2cccs2)c1	104
CCCCCCCCCOc1ccc(-c2ncc(CCCCCCC)cn2)cc1	113
Cc1ccc(C(=O)N2CCN(C(=O)c3ccc(C)cc3)C2)cc1	115
CCOc1cc(C2C3=C(CC(C)(C)CC3=O)OC3=C2C(=O)CC(C)(C)C3)cc(Br)c1O	109
Cc1ccccc1-c1nc(-c2cccnc2)no1	103
O=C(Cc1ccc(Cl)cc1)NC(c1ccccc1)c1nnc(-c2ccccc2)o1 (configuration not stated)	100
COc1ccc(/C=C2\C=C(c3ccccc3)N(c3ccc(Br)cc3)C2=O)cc1Br	110
Cc1ccc(-c2c(C(=O)Nc3ccc(S(N)(=O)=O)cc3)oc(=O)c3ccccc23)cc1	99
CC1CCN(S(=O)(=O)c2ccc(-c3nnc(C4CCC4)o3)o2)CC1	105
Cc1cccc(Nc2nc3nonc3nc2Nc2ccc(I)cc2)c1C	111

Screens (PubChem BioAssay)
